# Screening results: PubChem, National Center for Advancing Translational Sciences (NCATS)
# Bst PK mod – modulators of Bacillus stearothermophilus pyruvate kinase | partly purified Bacillus stearothermophilus pyruvate kinase, luminescence ATP production; ribose 5-phosphate activator present at AC10 | Potency, µM | 51,000 tested, 1.2% active; in the data active means potency below about 11 µM; inconclusive means mostly about 12 µM to 25 µM; inactive means weaker than that;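 the screen sought inhibitors and activators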;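 further: potency means the concentration at half of the fitted maximal effect; scaled between full activation by ribose 5 phosphate and full inhibition by luteolin; about four in five hits inhibit and the cells do not say which; series up to 57 µM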
# TsaE inh – displaces an ADP probe from E. coli YjeE (TsaE) | Potency, µM | P0AF67 | purified YjeE, fluorescence polarisation of a bound ADP probe | 71,000 tested, 0.05% active; active = well fitted falling curve; inconclusive = weaker or top-dose-only fall, or a rising curve; inactive = flat or poorly fitted curve;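 further: top concentration of the series not given in the record; excess ADP was the control for the full effect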
#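 Purified YjeE (10 uM) with BODIPY Texas Red-labeled ADP probe (2 uM); compounds pin-transferred, 15 min at room temperature. Binding inhibition read as decreased fluorescence polarization; ADP titration as control.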
# The depositor's hits bear a star; i = inactive; · = not tested or not shown. An excerpt; rates above refer to the full screens.
# Order of values – Bst PK mod | TsaE inh
> O=C1CCCc2nc(N3CCN(Cc4ccccc4)CC3)ncc21
  >57 | i
> C(=N/n1c2ccccc2c2ccccc21)/c1ccco1
  · | i
> Cc1csc(NC(=O)CSc2nnc(-c3ccncc3)o2)n1
  >57 | i
> O=C(O)c1cccc(N2C(=O)C3CC=C(Cl)CC3C2=O)c1 (stereo not drawn)
  · | i
> Cc1csc(SCC(=O)Nc2ccccn2)n1
  >57 | i
> NC[C@H](O)c1ccc(O)c(O)c1
  · | i
> CCOC(=O)N1CCC(NC(=O)C2CCC(Cn3c(=O)[nH]c4ccccc4c3=O)CC2)CC1 (stereo not drawn)
  >57 | i
> c1ccc(N2CCN(c3nnnn3-c3ccccc3)CC2)cc1
  · | i
> COc1ccc(-n2nnc3c(=O)n(CC(=O)N4CCC(C)CC4)cnc32)cc1
  · | i
> CCCCn1c2nc3ccccc3nc2c2c(=O)n(CCC(C)C)cnc21
  >57 | i
> CCOc1ccc(-n2cc(C(=O)N3CCC(C)CC3)c3cc(OC)c(OC)cc3c2=O)cc1
  >57 | i
> CC1(C)CC2CC(C)(CN2CC(=O)C(C#N)c2ccccc2)C1 (stereo not drawn)
  >57 | i
> Nc1nnc(CC2=CCCCC2)s1
  >26 | ·
> COc1ccc(S(=O)(=O)Cc2ccc(C(=O)N3CCN(c4cc(Cl)ccc4C)CC3)o2)cc1
  · | i
> O=C(NC1CCCC1)c1sc(=S)n2c1[nH]c(=O)c1ccccc12
  · | i
> C=CCNc1sc(C(=O)C2CC2)c(N)c1C#N
  i | ·
> CCOC(=O)c1cnc2c(C(=O)OC)cccc2c1NCc1ccco1
  >11 | i
> CC1(C)CC(=O)c2cc(OCC(=O)NCCCN3CCN(c4ccc(F)cc4)CC3)ccc2O1
  >57 | i
> Cc1cc(C)n(-c2nc3c(c(=O)[nH]c(=O)n3C)n2CC(C)C)n1
  >57 | i
> CCCC1=C(C(=O)OCC)C(c2cc(Cl)cc(OC)c2OCC(=O)OCC)NC(=O)N1 (stereo not drawn)
  >57 | i
> Cc1ccc(Nc2nc(N)nc(CN3CCCCCC3)n2)c(C)c1
  >57 | i
> CCOC(=O)c1ccc(-n2c(N)c(C(=O)NCc3ccco3)sc2=S)cc1
  >57 | i
> CC(C)c1ccc2c(c1)CC[C@@H]1[C@@](C)(CN)CCC[C@@]21C
  · | i
> C=C(C)COc1ccc(-c2nc(N)ncc2-c2ccc(OC)cc2)c(O)c1
  >57 | i
> CC1(C)CC(=O)C(C=N)=C(O)C1
  >26 | ·
> CCOc1ncccc1C(=O)OCC(=O)N1CC(=O)Nc2ccccc21
  >57 | i
> CCC(Sc1nc(-c2ccccc2)cc(=O)[nH]1)C(=O)O (stereo not drawn)
  · | i
> CCc1cc2c(N3CCN(c4nnc(CC)s4)CC3)ncnc2s1
  · | i
> N#C/C(C(=O)c1ccccc1)=C1/SC=C(N)N1c1ccccc1
  >57 | i
> CCS(=O)(=O)Nc1ccc(C(=O)CC2(O)C(=O)Nc3ccccc32)cc1 (stereo not drawn)
  >57 | i
> Nc1nc(CSc2nnnn2-c2ccccc2)nc(N2CCCc3ccccc32)n1
  >57 | i
> CCNc1ncc2nc(-c3ccc(OC)cc3)c(=O)n(Cc3cccc(OC)c3)c2n1
  · | i
> COc1ccc(Cl)cc1NC(=O)c1cccnc1
  · | i
> Cc1cccc(-n2c(C)nc3c(cnn3-c3ccc(F)cc3)c2=O)c1
  >11 | i
> COc1ccccc1-c1nnc(SCc2nc3ccccc3[nH]2)n1C
  >57 | i
> O=C(O)c1cc2sccc2s1
  >26 | ·
> Cc1cc(C)c(NC(=O)C(C)(C)C)c(Cl)c1
  · | i
> O=C1CSC(=Nc2ccccc2Cl)N1
  · | i
> Cc1nnc2sc(-c3csc4c3CCCC4)nn12
  · | i
> COc1cc2[nH]c(=O)n(CCCCCC(=O)NCCCN3CCOCC3)c(=O)c2cc1OC
  >57 | i
> COc1ccc(CCNC(=O)C2CCN(C(=O)N(C)C)CC2)cc1OC
  >57 | i
> COc1ccc(N(CC(=O)Nc2ccc3c(c2)OCCO3)S(=O)(=O)c2cccnc2)cc1
  · | i
> COc1ccc(-n2c(C)nnc2SCC(=O)N2C(C)CCCC2C)cc1 (stereo not drawn)
  >57 | i
> COc1ccc(CN2CCCCC2c2cccnc2)c(OC)c1C (stereo not drawn)
  · | i
> O=C(CCC1CCCC1)c1c(O)c2ccccc2oc1=O
  · | i
> CCCC(=O)Nc1ccccc1NC(C)=O
  >57 | i
> COc1ccc(NC(=O)CSc2nnc(-c3cccs3)n2Cc2ccco2)cc1OC
  >57 | i
> Cn1c2ccccc2c2cc(C(=O)OCC(=O)N3CC(=O)Nc4ccccc43)sc21
  >57 | i
> CC(=O)[C@@]1(O)CC[C@H]2[C@@H]3C[C@H](C)C4=CC(=O)C=C[C@]4(C)[C@@]3(F)[C@@H](O)C[C@@]21C
  >26 | ·
> NCCCC(=O)N1c2ccccc2Sc2ccccc21
  · | i
> COc1ccccc1NC(=O)c1ccccc1-c1nc(-c2ccccc2OC)no1
  · | i
> COc1ccc(N2CCN(C(=O)CSc3nnnn3-c3ccc4c(c3)OCCO4)CC2)cc1
  >57 | i
> Oc1ccc2ccccc2c1CN(Cc1c(O)ccc2ccccc12)C1CCCCC1
  · | i
> COc1nccc(Nc2ccccc2)c1C#N
  >57 | i
> CCN(CC)CCCN1C(=O)C(=O)/C(=C(/O)c2ccccc2)C1c1ccccn1 (stereo not drawn)
  >26 | ·
> Cc1ccc(Nc2cc(C)nc3nc(C)nn23)c(C)c1
  · | i
> CCOC(=O)N1CCN(C(=O)CCn2nc(-c3ccc(Cl)cc3)ccc2=O)CC1
  · | i
> COc1ccccc1CNc1cc(-c2ccccc2C)ncn1
  · | i
> Cc1[nH]c(-c2ccco2)nc1C(=O)O
  >57 | i
> O=C(Nc1nc2cc3c(cc2s1)OCCO3)c1cccc(S(=O)(=O)N2CCOCC2)c1
  · | i

# Next compounds.
# Order of values – Bst PK mod | TsaE inh
> COc1ccccc1N1CCN(C(=O)COc2ccc(C)cc2Br)CC1
  · | i
> Cn1nnnc1SCc1nc2ccccc2[nH]1
  · | i
> CC[C@@H]1OC(=O)[C@@H](C)[C@H](O[C@@H]2C[C@@](C)(OC)[C@@H](O)[C@H](C)O2)[C@H](C)[C@H](O[C@@H]2O[C@@H](C)C[C@@H](N(C)C)[C@H]2O)[C@@](C)(O)C[C@H](C)C(=O)[C@@H](C)[C@H](O)[C@@]1(C)O
  · | i
> COc1ccc(C=Nc2c(O)ccc3ccccc23)cc1OC
  · | i
> C=CCN1C(=O)C2(c3ccccc31)C1CCCC=C1C(C#N)=C(N)C2(C#N)C#N (stereo not drawn)
  >57 | i
> O=C(CSc1nc(-c2ccccc2)cs1)NCc1ccco1
  >57 | i
> Cc1cc(NC(=O)NC(=O)c2ccc(F)cc2F)n[nH]1
  · | i
> O=S(=O)(NCCNC/C=C\c1ccc(Br)cc1)c1cccc2cnccc12
  · | i
> Cc1ccc(S(=O)(=O)Nc2cc(NC(=O)CN3CCOCC3)ccc2Cl)cc1
  >57 | i
> OCCNc1nc(-c2ccccc2)c2ccccc2n1
  >26 | ·
> COc1ccccc1NC(=O)N1CCc2[nH]c3ccc(F)cc3c2C1
  >57 | i
> CCn1c(C)nc2cc(C(=O)OCCC(F)(F)F)ccc21
  >57 | i
> Cc1ccc(NC(=O)CSc2nc3ccccc3c(=O)n2CCCC(=O)N2CCCC2)cc1
  >57 | i
> O=C(CCn1cnc2ccccc2c1=O)Nc1ccc2c(c1)OCCO2
  >57 | i
> Cc1cc(C)c(C#N)c(N2CCN(CCOc3ccc(Cl)cc3)CC2)n1
  >57 | i
> CCOC(=O)c1ccc(NC(=O)c2cnccn2)cc1
  >11 | i
> COCCCNc1nc2c(c(=O)[nH]c(=O)n2C)n1CC(O)COc1cccc(C)c1 (stereo not drawn)
  >57 | i
> COc1cc([C@H]2c3cc4c(cc3[C@@H](O[C@H]3O[C@H]5CO[C@@H](C)O[C@H]5[C@@H](O)[C@@H]3O)[C@@H]3COC(=O)[C@H]23)OCO4)cc(OC)c1O
  · | i
> CCc1nc(N[C@@H](Cc2c[nH]c3ccccc23)C(=O)O)c2oc3ccccc3c2n1
  · | i
> CCOC(=O)CSc1nc(N)c(C#N)c(-c2ccc(OC)cc2)c1C#N
  >26 | ·
> COc1ccccc1OCc1csc(NC(=O)c2ccco2)n1
  >57 | i
> Cc1nn(-c2ccc(F)cc2F)c2c1-c1nc(N3CCCC3)ncc1CC2
  >57 | i
> CCOC(=O)COn1c(=O)c(-c2ccco2)[n+]([O-])c2ccccc21
  >26 | ·
> COCCn1c(SCC(=O)N2CCCc3ccccc32)nc2cccnc21
  >57 | i
> O=C(CCN1C(=O)COc2ccccc21)NCCC1=CCCCC1
  >57 | i
> CC(NC(=O)Cc1cccs1)c1ccc2c(c1)OCO2 (stereo not drawn)
  >57 | i
> O=C(COC(=O)c1ccccc1NC(=O)c1ccco1)NCc1ccc2c(c1)OCO2
  >57 | i
> COC(=O)c1sccc1NC(=O)C1CC2CCC1C2 (stereo not drawn)
  >57 | i
> O=C1COc2ccc(-c3csc(NCC4CCCO4)n3)cc2N1 (stereo not drawn)
  · | i
> N#CCC(=O)NCC1(c2ccccc2)CCCC1
  >57 | i
> COc1ccc(S(=O)(=O)N2CCC(C(=O)Nc3c(F)cccc3F)CC2)cc1
  · | i
> Cc1cccc(C(=O)N2CCN(C(=O)c3cccc(C)c3)C(C)C2)c1 (stereo not drawn)
  · | i
> COc1ccc(CNc2nc(-c3cccc(NS(C)(=O)=O)c3)nc3ccccc23)c(OC)c1
  · | i
> COc1ccccc1C(=O)N(Cc1ccco1)C1CCS(=O)(=O)C1 (stereo not drawn)
  >57 | i
> Cc1cc(=O)[nH]c(SCc2cc(=O)n3nc(C)sc3n2)n1
  · | i
> CCC(C(=O)Nc1nccs1)c1ccccc1 (stereo not drawn)
  · | i
> N=C(N)SCCc1ccc(OCc2ccc([N+](=O)[O-])cc2)cc1
  · | i
> CSCC[C@H](NC(=O)OC(C)(C)C)C(=O)N1CCC(C(=O)N[C@H](C(=O)O)C(C)C)CC1
  >57 | i
> OCCSc1nnc(Nc2ccccc2)s1
  >57 | i
> CCCCc1nnc(NC(=O)CSc2nc(=O)cc(N)n2-c2ccccc2)s1
  >57 | i
> O=C(NCCO)c1ccc2c(c1)S(=O)(=O)c1ccccc1C2=O
  >57 | i
> COc1cccc(OCCCCCN2CCOCC2)c1
  · | i
> Cc1ccc2nc(SCC(=O)N3CCCC3)[nH]c2c1
  · | i
> CCOC(=O)CC1=CSC2=NS(=O)(=O)CCN12
  >57 | i
> O=S(=O)(Cc1ccccc1)/C1=C(\N2CCOCC2)CCCCCC1
  >57 | i
> O=C(CNC(=O)c1ccco1)OCC(=O)c1ccc2c(c1)CCCC2
  >57 | i
> COC(=O)c1[nH]c2cccc(OC)c2c1NC(=O)CCN1CCC(C(N)=O)CC1
  >57 | i
> CN=c1sc2ccccc2n1CC(O)COCc1ccco1 (stereo not drawn)
  >26 | ·
> O=C(/C=N\O)NCCCNCc1ccccc1
  · | i
> O=C(Nc1c(F)cc(F)cc1Br)c1ccco1
  >57 | i
> CCCCn1c(-c2ccccc2)nc2c(=O)n(C)c(=O)[nH]c21
  >57 | i
> COc1cccc(Nc2ncc3nc(-c4cccs4)c(=O)n(Cc4cccs4)c3n2)c1
  · | i
> COc1ccccc1NC(=O)C1=C(C)Nc2nc(CCCO)nn2C1c1cccnc1 (stereo not drawn)
  >57 | i
> NC(=O)/N=N/C(N)=O
  · | i
> Cc1ccc(NC(=O)c2ccc3c(c2)N(CC(=O)N2CCCCC2)C(=O)C(C)(C)O3)cc1
  >57 | i
> COc1ccc(CNC(=O)CN(CC2CCCO2)C(=O)CNS(=O)(=O)c2ccc(F)cc2)cc1 (stereo not drawn)
  >57 | i
> O=C(Cn1nnc(-c2ccc(CN3CCOCC3)cc2)n1)Nc1nc(-c2ccccc2)cs1
  i | i
> C#CCOC(=O)CCC(=O)NCCc1ccccc1
  · | i
> Cn1c(/C(C#N)=C(\O)CN2CCN(Cc3ccccc3)CC2)nc2ccccc21
  >57 | i
> ON1C(c2ccccc2)CC2(O)c3nonc3CCC12 (stereo not drawn)
  · | i

# Other compounds
# Order of values – Bst PK mod | TsaE inh
> CCn1c(COc2ccc(OC)cc2)nnc1SCC(=O)Nc1cc(OC)ccc1OC
  >57 | i
> O=c1cc(Cn2nnc(-c3ccc(Cl)cc3)n2)nc2sccn12
  >57 | i
> Cc1ccc2nc(NC(=O)C3CCCN(S(=O)(=O)c4cccc5nsnc45)C3)sc2c1 (stereo not drawn)
  >57 | i
> N#Cc1ccc(CN2CCCC3(CCN(C(=O)c4ccco4)CC3)C2)cc1
  · | i
> CN(C1CCCCC1)S(=O)(=O)c1ccc(NC(=O)c2ccco2)cc1
  >57 | i
> COc1ccc(NC(=O)Nc2c(C)n(-c3ccccc3)c(=O)n2C)cc1OC
  >57 | i
> CCOc1ccc(-c2nnc(NC(=O)c3ccc(OCC(C)C)c(OC)c3)o2)cc1
  >11 | i
> O=C(OCC(=O)N1CCC(Cc2ccccc2)CC1)c1ccc[nH]c1=O
  >57 | i
> Cc1ccc(NC(=O)C2CC(=O)NC(N3CCCCC3)=N2)cc1Cl (stereo not drawn)
  >57 | i

# Grouped by structure: those above containing bromine.
# Order of values – Bst PK mod | TsaE inh
> COc1ccccc1N1CCN(C(=O)COc2ccc(C)cc2Br)CC1
  · | i
> O=S(=O)(NCCNC/C=C\c1ccc(Br)cc1)c1cccc2cnccc12
  · | i
> O=C(Nc1c(F)cc(F)cc1Br)c1ccco1
  >57 | i
